From PubChem
VACV Venus inh = vaccinia inhibition (Venus reporter). Vaccinia virus Venus reporter expression, fluorescence. Potency, µM (titrated, usually from 36.5 µM), without a hit: at the top dose activity change, negative = inhibition, usual class: inhibitors. 330,000 tested, 0.46% active; active means well fitted inhibition curve with a large enough effect; inconclusive means small, poorly fitted or top-dose-only effect; inactive means no such curve, though single readings can be large or run the other way; tested in A549 cells; further: nearly all actives have a fitted effect of over 30% in size; inactives centre near -10
VACV mCherry inh = vaccinia inhibition (mCherry reporter) | Potency, µM (titrated, usually from 36.5 µM), inactives show at the top dose activity change, negative = inhibition, most hits filed as inhibitors | AID 720579 | Vaccinia virus mCherry reporter infection, fluorescence; about a quarter of the inactives have no number | 310,000 tested, 0.63% active; active = well fitted inhibition curve with a large enough effect; inconclusive = small, poorly fitted or top-dose-only effect; inactive = no such curve, though single readings can be large or run the other way; tested in A549 cells; further: nearly all actives have a fitted effect of over 35% in size; inactives centre near -10
The depositor's hits bear a star; i = inactive; ? = inconclusive; · = no result given. On the % scale 0 is the no-effect control and ±100 the full control effect; potency means the concentration at half of the fitted maximal effect.

SMILES | VACV Venus inh | VACV mCherry inh
Cc1cccc(C(=O)Nc2nnc(Cc3ccccc3)s2)c1 | -6% | i
CCOC(=O)C1CCCN(c2c(Nc3ccc(C)c(C)c3)c(=O)c2=O)C1 (centres undefined) | -10% | ?
O=c1[nH]cn[nH]1 | -6% | -1%
COc1cc(O)c(C(CC(=O)N2CCCC(C)C2)c2ccc3c(c2)OCO3)c(OC)c1 (centres undefined) | -17% | -20%
CCOC(=O)c1c(NC(=O)CC2Sc3ccc(C(F)(F)F)cc3NC2=O)sc(C)c1C (centres undefined) | -3% | i
FCCCOc1ccc(/C=N/OCc2ccc(Cl)cc2Cl)cc1 | -12% | -12%
N[C@@H](Cc1ccccc1)c1nnc(SCc2ccccc2F)o1 | ? | 11µM*
Nn1c(SCC(=O)N2CCc3ccccc3C2)nnc1-c1cccs1 | -19% | ·
COc1cc2cnc(-c3ccccc3)c(-c3cc(OC)c(OC)c(OC)c3)c2cc1OC | ? | -15%
Cc1nnc2c3ccccc3nc(N3CCN(c4ccccc4)CC3)n12 | -8% | -12%
Cc1nn(-c2ccccn2)c2c1C(=O)C(Br)CC2 (centres undefined) | -14% | -24%
CC(=O)Nc1ccc(S(=O)(=O)N2CCCCC2C(=O)O)cc1 (centres undefined) | -1% | i
Cc1ccc(N2CC(c3nnc(Cc4ccc(Cl)cc4)o3)CC2=O)cc1 (centres undefined) | -5% | -11%
CCOC(=O)CN1C(=O)S/C(=C/c2cc(C)n(C)c2C)C1=O | -5% | -11%
COc1cc(/C=C(\C#N)C(=O)Nc2ccccc2)ccc1OCCN1CCOCC1 | -13% | -9%
O=C(NCCO)c1cn(C2CCCN(Cc3cccc(C(F)(F)F)c3)C2)nn1 (centres undefined) | 14% | -2%
CCOC(=O)CSc1nc(-c2ccc3c(c2)OCO3)ccc1C#N | -7% | -15%
COc1ccc(-c2nc3c4ccccc4n(CC(=O)Nc4cc(F)ccc4F)c(=O)n3n2)cc1 | 2% | 2%
COc1ccccc1CC(=O)NCC1CCCO1 (centres undefined) | -18% | ·
Cc1cccc(C(=O)n2nc(-c3ccco3)nc2NCc2ccccc2)c1 | -2% | -10%
Cc1ccc(S(=O)(=O)N2CCN=C2SCc2ccc(Cl)c(Cl)c2)cc1 | 0% | -3%
Cc1cc(N2CCN(C)CC2)nc2ccc(NC(=O)c3ccccc3F)cc12 | -24% | -3%
Cc1ccnc(NS(=O)(=O)c2ccc(NC(=O)C3CC3)cc2)n1 | -8% | -1%
CCOc1ccc(NC(=O)CN2CCC(n3cnc4cc(F)ccc43)CC2)cc1 | -19% | i
CCCCC(=O)N/C(N)=N/c1nc2ccccc2o1 | -20% | i
CCOC(=O)Cc1csc(NC(=O)C2CCCN(S(=O)(=O)c3cnc[nH]3)C2)n1 (centres undefined) | -7% | i
Cc1cc(C)nc(-n2nc(C)c3c(C(F)F)cc(C)nc32)n1 | 0% | ·
CCCc1ccc2ccc3ccccc3c2n1 | 5% | i
Cc1ccc(-c2nc(-c3cc4cccc(OCc5ccc(F)cc5)c4oc3=O)no2)cc1 | 2% | -5%
O=C(Cc1c[nH]c2ccccc12)NCc1ccc2c(c1)OCO2 | -4% | ·
O=C(O)c1cnn2cc(-c3[nH]ncc3[N+](=O)[O-])cnc12 | -7% | -7%
Fc1ccc(C2c3cccn3CCN2C(=S)Nc2cccc(F)c2)cc1 (centres undefined) | -13% | -1%
CC(=O)OC1CC(n2ccc(NC(=O)c3ccccc3)nc2=O)OC1CO (centres undefined) | -3% | ·
CCOc1cc(C=O)ccc1OCCSc1ccc(Cl)cc1 | -8% | -12%
Cc1c2cnn(CC(=O)NCC(C)c3ccccc3)c(=O)c2c(C)n1Cc1cccc(Cl)c1 (centres undefined) | -12% | 2%
COc1ccc(-n2nc(C(=O)NCc3ccco3)c3ccccc3c2=O)cc1 | -19% | -4%

Reformatted: results already given.
mol	VACV Venus inh	VACV mCherry inh
O=C(NCCO)c1cn(C2CCCN(Cc3cccc(C(F)(F)F)c3)C2)nn1 (centres undefined)	14%	-2%
CCOC(=O)CSc1nc(-c2ccc3c(c2)OCO3)ccc1C#N	-7%	-15%
COc1ccc(-c2nc3c4ccccc4n(CC(=O)Nc4cc(F)ccc4F)c(=O)n3n2)cc1	2%	2%
COc1ccccc1CC(=O)NCC1CCCO1 (centres undefined)	-18%	·
Cc1cccc(C(=O)n2nc(-c3ccco3)nc2NCc2ccccc2)c1	-2%	-10%
Cc1ccc(S(=O)(=O)N2CCN=C2SCc2ccc(Cl)c(Cl)c2)cc1	0%	-3%
Cc1cc(N2CCN(C)CC2)nc2ccc(NC(=O)c3ccccc3F)cc12	-24%	-3%
Cc1ccnc(NS(=O)(=O)c2ccc(NC(=O)C3CC3)cc2)n1	-8%	-1%
CCOc1ccc(NC(=O)CN2CCC(n3cnc4cc(F)ccc43)CC2)cc1	-19%	i
CCCCC(=O)N/C(N)=N/c1nc2ccccc2o1	-20%	i
CCOC(=O)Cc1csc(NC(=O)C2CCCN(S(=O)(=O)c3cnc[nH]3)C2)n1 (centres undefined)	-7%	i
Cc1cc(C)nc(-n2nc(C)c3c(C(F)F)cc(C)nc32)n1	0%	·
CCCc1ccc2ccc3ccccc3c2n1	5%	i
Cc1ccc(-c2nc(-c3cc4cccc(OCc5ccc(F)cc5)c4oc3=O)no2)cc1	2%	-5%
O=C(Cc1c[nH]c2ccccc12)NCc1ccc2c(c1)OCO2	-4%	·
O=C(O)c1cnn2cc(-c3[nH]ncc3[N+](=O)[O-])cnc12	-7%	-7%
Fc1ccc(C2c3cccn3CCN2C(=S)Nc2cccc(F)c2)cc1 (centres undefined)	-13%	-1%
CC(=O)OC1CC(n2ccc(NC(=O)c3ccccc3)nc2=O)OC1CO (centres undefined)	-3%	·

The list continues:
SMILES | VACV Venus inh | VACV mCherry inh
O=C(Nc1c(Cl)cc(Cl)cc1C(=O)NCC1CCCO1)c1ccco1 (centres undefined) | -3% | -11%
Cc1cccc(/C=N/NC(=O)CN2CCCCCCC2)c1 | -9% | i
NC(=O)c1c(NC(=O)C2c3ccccc3Oc3ccccc32)sc2c1CCCCC2 | -4% | -8%
Cc1ccc(C(=O)N2CCCc3ccccc32)c(Cl)c1 | -9% | i
Cc1c(C(=O)NCCc2cccnc2)cnn1-c1nccc(-c2ccccc2F)n1 | -28% | -20%
CC(NC(=O)CN1C(=O)NC2(CCCC2)C1=O)c1ccc(Cl)cc1Cl (centres undefined) | -7% | -12%
COc1cc(C2C(C#N)=C(N)Oc3cc(C)n(CCN4CCOCC4)c(=O)c32)cc(OC)c1OC (centres undefined) | -4% | ·
N#Cc1ccsc1NC(=O)CN1CCN(S(=O)(=O)c2ccccc2C(F)(F)F)CC1 | -9% | 3%
Cc1cccc(-n2c(=S)[nH]c3nc4c(cc3c2=O)COC(C)(C)C4)c1 | 0% | i
Cc1ccc(NC(=O)CSc2ncccn2)cc1S(=O)(=O)N1CCOCC1 | -6% | -14%
O=C(Nc1ccc([N+](=O)[O-])cc1)/C(=C/c1cccc([N+](=O)[O-])c1)NC(=O)C1CCCCC1 | -14% | -7%
Cc1ccccc1CNC(=O)C(C)N(c1ccccc1)S(C)(=O)=O (centres undefined) | -10% | -2%
Cc1cccc2cc(CN(CCN(C)C)C(=S)NCc3ccco3)c(=O)[nH]c12 | -16% | -22%
O=C(NCCCN1CCN(Cc2ccccc2Cl)CC1)Nc1ccccc1 | -22% | ·
O=C(CCc1nc2ccccc2s1)OCC(=O)N1CCN(C(=O)c2ccco2)CC1 | -2% | -12%
CCc1ccccc1Nc1nc2ccccc2c2nncn12 | 3% | -8%
CCCNC(=O)C1CCC(Cn2c(=O)c3sccc3n(Cc3ccccc3F)c2=O)CC1 (centres undefined) | -22% | -23%
COc1ccc(C2CC2/C(C)=N/OC(=O)c2ccc(F)cc2)cc1 (centres undefined) | -3% | -9%
CCOC(=O)C1(C)CCCN1C(=O)c1snnc1C (centres undefined) | 2% | 14%
COc1cc(/C=N/n2c(C)n[nH]c2=S)ccc1OCc1ccccc1 | -15% | -14%
COc1ccccc1C(=O)NC(CCSC)C(=O)NCCCSc1ccccc1 (centres undefined) | -21% | -9%
CCCCNC(=O)C1CCN(S(=O)(=O)c2ccc3c(ccn3CC)c2)CC1 | -9% | -11%
C=CCOC(=O)C1=C(C)N=c2s/c(=C3\C(=O)N(CC(=O)O)c4ccccc43)c(=O)n2C1c1ccc(OC)cc1 (centres undefined) | 5% | -15%
COc1cc2c(cc1NC(=O)COC(=O)[C@@H](NC(=O)c1ccccc1F)C(C)C)oc1ccccc12 | -18% | -14%
C=C(C)Cn1c(N(CCO)Cc2ccccc2)nc2c1c(=O)[nH]c(=O)n2C | 0% | -11%
Cc1cc(N2CCCCC2)nc2ccc(NC(=O)c3cccc(Cl)c3)cc12 | -14% | -14%
CCC(=O)c1cn(CC(=O)Nc2ccccc2Cl)c2ccccc12 | -16% | -16%
COc1cc2c(cc1OC)C(c1cccnc1)CC(=O)N2 (centres undefined) | -7% | -8%
NC(CSC(c1ccccc1)(c1ccccc1)c1ccc2c(c1)OCO2)C(=O)O (centres undefined) | ? | -30%
CCOc1ccc(N2C(=O)Nc3ccc(Br)cc3C2(O)C(=O)NCCCN(C)C)cc1 (centres undefined) | -7% | i
Cc1ccc(S(=O)(=O)N(C)C[C@H]2OCCCC[C@H](C)Oc3ccc(NC(=O)Nc4cccc5ccccc45)cc3C(=O)N([C@@H](C)CO)C[C@H]2C)cc1 | -22% | i
CC(C)(C)c1ccc(OCCC(=O)NC2=NCCS2)cc1 | -9% | -13%
Cc1ccccc1NC(=O)CNc1ccc(Cl)c(C(F)(F)F)c1 | -13% | -15%
Cc1nc(S(=O)(=O)N(C)c2ccccc2)c(C#N)c(C)c1Cl | -7% | -5%
Cc1cc(C)cc(OCC(=O)OCC(=O)Nc2cc(C)nn2-c2ccccc2)c1 | -11% | -10%
Cc1ccccc1-c1cccc(CN2CCc3nnc(C(NS(C)(=O)=O)C(C)C)n3CC2)c1 (centres undefined) | -5% | -5%
CCOc1ccc2nc(Nc3nc4ccc(NC(C)=O)cc4s3)sc2c1 | ? | ?
Cc1cc2oc(C(=O)N(Cc3ccccc3)C3CCS(=O)(=O)C3)cc(=O)c2cc1C (centres undefined) | -8% | -9%
C=CCNc1nc(-c2sc(NC(=O)CC)nc2C)cs1 | -11% | ?
CC(=O)Nc1ccc(C(=O)COC(=O)C2CC3CCCC(C2)C3=O)cc1 (centres undefined) | -6% | i
CCCCN1C(=O)c2ccc(C(=O)Nc3ccc(S(=O)(=O)N(C)C)cc3)cc2C1=O | -12% | -16%
COCCNc1ncnc2c1c(-c1ccccc1)cn2-c1ccc(C)c(Cl)c1 | -6% | -3%
Cc1ccccc1-c1nc(S(=O)(=O)c2ccc(Cl)cc2)c(NCCN2CCOCC2)o1 | ? | ?
COc1cc(C)cc2oc(=O)c(CC(=O)NCCc3ccc(Cl)cc3)c(C)c12 | -13% | -21%
CCC1CCc2nc3sc(C(=O)Nc4ccc(F)c(F)c4)c(N)c3cc2C1 (centres undefined) | 2% | 1%
Cc1ccc2[nH]c3c(=O)n(CC(=O)N4CCCC(C)C4)ncc3c2c1 (centres undefined) | -10% | -20%
CCn1cnc2cc(NCc3ccccc3Cl)ccc21 | -20% | -23%
COc1ccc2c(c1)c1c(c(=O)n(-c3cccc(C)c3)c(=O)n1Cc1cccc(Cl)c1)n2C | -12% | -11%
CC(=O)Nc1cccc(NC(=O)Nc2ccc(C)c(Cl)c2)c1 | -8% | -13%
CCn1c(SC(C)C(=O)N2CCOCC2)nc2sc(C)c(C)c2c1=O (centres undefined) | -10% | i
CCOC(=O)C1CCN(S(=O)(=O)c2cc(Br)cc3c2N(C(=O)C2CC2)CC3)CC1 | -11% | -18%
Cc1ccc(N2C(=O)CSC23C(=O)N(CC(=O)NCCc2ccccc2)c2ccccc23)cc1 (centres undefined) | -15% | -5%
O=C(CCCc1ccccc1)NCc1cn2ccsc2n1 | -5% | i
O=C(NCc1ccc(F)cc1)C1CCN(c2cnccn2)CC1 | -1% | -9%
COC(=O)c1ccc2nc(-c3ccc(C#N)cc3)c(Cc3cccc(F)c3)n2c1 | 0% | 30%
Cn1c(CC(=O)Nc2ccccc2Cl)nnc1SCC(=O)NC1=NCCS1 | -6% | 10%
CSc1nc(N)nc2c1ncn2CC(=O)N1CCN(c2ccccn2)CC1 | -17% | -5%
CCc1ccc(C2CC(c3ccc(F)cc3)Nc3nc(N)nn32)cc1 (centres undefined) | -9% | -9%
O=C(NCCF)C1Nc2ccc(OC(F)(F)F)cc2C2C=CCC12 (centres undefined) | -17% | -14%
CCCC(=O)N1CCCC(c2cc(C(=O)NCc3cccnc3)no2)C1 (centres undefined) | 15% | -11%

Part of the list above, with values under each structure.
Every second line gives: VACV Venus inh	VACV mCherry inh
> Cc1ccc(N2C(=O)CSC23C(=O)N(CC(=O)NCCc2ccccc2)c2ccccc23)cc1 (centres undefined)
 : -15%	-5%
> O=C(CCCc1ccccc1)NCc1cn2ccsc2n1
 : -5%	i

Other structures follow:
SMILES | VACV Venus inh | VACV mCherry inh
CC(C)(C)OC(=O)N1CCC(c2cc(=O)n3[nH]cc(C(=O)NC4CCCC4)c3n2)CC1 | -14% | -19%
Cc1ccccc1NC(=O)CSc1cn(CC(=O)N2CCCC2)c2ccccc12 | -11% | -8%
CC1(C)CC(=O)C(C=NCCN2CCN(C(=S)NC3CCCCC3)CC2)=C(O)C1 | -8% | i
O=C(Cn1cnc2cc([N+](=O)[O-])ccc2c1=O)Nc1cccc2ccccc12 | -16% | i
Nc1nc(N2CCN(C/C=C/c3ccccc3)CC2)nc2ccccc12 | -20% | -7%
O=C(NCc1cccc(Cl)c1)C1CCCN(c2nn3cc(-c4ccc(F)cc4)nc3s2)C1 (centres undefined) | -26% | -23%
Cc1ccc(C)c(S(=O)(=O)n2cnc3ccccc32)c1 | -9% | -14%
